Tgondii IFNg – T. gondii growth inhibition under IFN-gamma. AID 1259416. activity change, negative = inhibition, %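 (about 20 µM by stock and volumes)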. Toxoplasma gondii growth in IFN-gamma-treated host cells; stronger effect = lower value; reference of the scale not given here. 69,000 tested, 3.8% active;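 active = below -70%; inconclusive = fit judged invalid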;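 note: host cells are HeLa cells infected with Toxoplasma gondii; parasite growth read as luciferase light; one replicate is shown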
Numbers without * were called inactive; ? = inconclusive; & = joins results of further samples; ! = not confirmed by another sample. Some of the compounds tested. The share of hits here may be higher or lower than overall.

Start of the listing, in advance:
nr	SMILES	Tgondii IFNg
1	CCOC(=O)[C@H](CCc1ccccc1)N[C@@H](C)C(=O)N1Cc2ccccc2C[C@H]1C(=O)O	3&25
2	Cc1cnn(Cc2nc(-c3ccc(NC(=O)c4ccc(C)s4)cc3)oc2C)c1	104
3	CCc1ccc(Nc2nc(C(=O)NCCN3CCCC3)nc3ccccc23)cc1	-47
4	Cn1c(=O)cc(N2CCC[C@@H](N)C2)n(Cc2ccccc2C#N)c1=O	-41
5	CC(=O)c1ccc2c(c1)[C@H](NC(=O)c1ccc(F)c(Cl)c1)[C@H](O)C(C)(C)O2	14

This part in full, repeating the preview:
nr	SMILES	Tgondii IFNg
1	CCOC(=O)[C@H](CCc1ccccc1)N[C@@H](C)C(=O)N1Cc2ccccc2C[C@H]1C(=O)O	3&25
2	Cc1cnn(Cc2nc(-c3ccc(NC(=O)c4ccc(C)s4)cc3)oc2C)c1	104
3	CCc1ccc(Nc2nc(C(=O)NCCN3CCCC3)nc3ccccc23)cc1	-47
4	Cn1c(=O)cc(N2CCC[C@@H](N)C2)n(Cc2ccccc2C#N)c1=O	-41
5	CC(=O)c1ccc2c(c1)[C@H](NC(=O)c1ccc(F)c(Cl)c1)[C@H](O)C(C)(C)O2	14
6	COc1cc2ncn(-c3cc(OCc4ccccc4C(F)(F)F)c(C(N)=O)s3)c2cc1OC	-88*
7	O=c1ccc2ccc(OCCCCN3CCN(c4cccc5sccc45)CC3)cc2[nH]1	-12
8	COc1cccc2cc(-c3nc(C4CCC(C(=O)O)CC4)n4ncnc(N)c34)[nH]c12 (stereo unspecified)	-48
9	CCCCNc1ccc(C(=O)OCCN(C)C)cc1	-6&-2&34
10	CNC(=O)c1ccc(Nc2ncc(C(F)(F)F)c(NCc3nccnc3N(C)S(C)(=O)=O)n2)cc1	-85*
11	COc1ccc(C2CNC(=O)C2)cc1OC1CCCC1 (stereo unspecified)	13
12	Cc1cn([C@H]2O[C@@H](CO)[C@H](O)[C@@H]2F)c(=O)[nH]c1=O	18
13	Cc1cnc(-c2cc(N3CCN(C(=O)CCS(C)(=O)=O)CC3)ncc2Cl)c(C)c1	29
14	Nc1ccc(-c2cccc3c(=O)cc(N4CCOCC4)oc23)cc1	8&3
15	C[C@@H]1CCCN1CCc1cc2cc(-c3ccc(C#N)cc3)ccc2o1	-6
16	C[C@@]1(c2nc3c(C(N)=O)cccc3[nH]2)CCCN1	4
17	Cc1cc([C@@H](C)Nc2ccccc2C(=O)O)c2nc(N3CCOCC3)cc(=O)n2c1	-6
18	NC(=O)C1(N2CCCCC2)CCN(CCCC(=O)c2ccc(F)cc2)CC1	5&-4
19	O=C(Cn1c(=O)ccc2cc(S(=O)(=O)N3CCCC3)ccc21)N1CCN(c2ncccn2)CC1	27
20	O=C(Cn1c(=O)cc(C(=O)N2CCCC2)c2ccccc21)Nc1cccc(Br)c1	-7
21	NC(CC(=O)Nc1ccc(Oc2cc(F)c(F)cc2Br)cc1)C(=O)O (stereo unspecified)	1
22	CCn1c(=O)c2c(nc(/C=C/c3ccc(OC)c(OC)c3)n2C)n(CC)c1=O	-5&-52
23	CC(=O)Oc1ccc(C(=C2CCCCC2)c2ccc(OC(C)=O)cc2)cc1	?
24	COc1ccc([C@H]2CNC(=O)C2)cc1OC1CCCC1	-7
25	CCN1c2ccc(F)cc2C(=O)NC12CCN(C(=O)c1cccc(C)c1)CC2	55
26	CC1Cc2ccccc2N1NC(=O)c1ccc(Cl)c(S(N)(=O)=O)c1 (stereo unspecified)	20&1&23
27	CCOC(=O)c1nc(Nc2cccc(OC)c2)c2ccccc2n1	-4
28	Cc1c(C(=O)N2CCOc3ccc(-c4ccc(N)nc4)cc3C2)ccc(S(C)(=O)=O)c1F	-2
29	Cc1cc(C)c2c(c1)[C@@H](N(Cc1cc(C(F)(F)F)cc(C(F)(F)F)c1)c1nnn(C)n1)CCCN2CC1CCC(C(=O)O)CC1 (stereo partly specified)	-81*
30	Cc1cn(C2CC(O)C(CO)O2)c(=O)[nH]c1=O (stereo unspecified)	-7
31	CC1(C)Oc2ccc(C#N)cc2[C@H](N2CCCC2=O)[C@H]1O (racemic)	12
32	COC(=O)c1sccc1S(=O)(=O)Nc1ccc(Nc2ccccc2)cc1OC	-1
33	Cc1oc2nc3c(c(NC(=O)CN4CCCC4=O)c2c1C)CCCC3	16
34	CN1CCCN=C1COC(=O)C(O)(c1ccccc1)C1CCCCC1 (stereo unspecified)	-74*!
35	CCN1C(=O)CCc2cc(NS(=O)(=O)Cc3ccccc3Cl)ccc21	52
36	OC[C@@H](O)CN1CCN(c2ccccc2)CC1	14&14
37	Cc1cc(C)c(CNC(=O)c2cc(-c3ccc(CN4CCOCC4)cc3)cc3c2cnn3C2CCCC2)c(=O)[nH]1	-59
38	Cc1c(Cn2ccnc2)c2ccccc2n1CCC(=O)O	15
39	CC(C)COc1ccc(CNC(=O)N(Cc2ccc(F)cc2)C2CCN(C)CC2)cc1	-15
40	c1cnc2cc3c(cc2n1)C1CNCC3C1	10
41	COc1ccnc2[nH]cc(C(=O)C(=O)N3CCN(C(=O)c4ccccc4)C[C@H]3C)c12	14
42	Oc1ccc2c(c1)OCC1(O)Cc3cc(O)c(O)cc3C21 (stereo unspecified)	11
43	CS(=O)(=O)c1ccc(-c2cnc(N)c(C(=O)Nc3ccccc3)n2)cc1	-86*
44	CNC(=O)c1nn(C)c2c1C(C)(C)Cc1cnc(Nc3ccc(N4CCN(C)CC4)cc3)nc1-2	-58
45	CC[C@H](CO)Nc1nc(NCc2ccc(-c3ccccn3)cc2)c2ncn(C(C)C)c2n1	-79*
46	C[N+]1(C)CCC(=C(c2ccccc2)c2ccccc2)CC1	24
47	CC(C(=O)O)c1ccc2c(c1)CC(=O)c1ccccc1S2 (stereo unspecified)	-40
48	Cc1ccc(N(CC2=NCCN2)c2cccc(O)c2)cc1	-7&39&42&1
49	COc1cccc(Nc2ncnn3ccc(CN4CC[C@@H](N)[C@H](O)C4)c23)c1	-47
50	CC(C)c1cc(-c2n[nH]c(=O)n2-c2ccc3c(ccn3C)c2)c(O)cc1O	-79*
51	C=CCn1c(=O)n([C@@H]2O[C@H](CO)[C@@H](O)[C@H]2O)c2nc(N)[nH]c(=O)c21	-8
52	CCN(CC)CCNC(C(=O)OCCC(C)C)c1ccccc1 (stereo unspecified)	37
53	C[C@H](NCc1ccc(OCc2cccc(F)c2)cc1)C(N)=O	29
54	CCOc1cc2ncc(C#N)c(Nc3ccc(OCc4ccccn4)c(Cl)c3)c2cc1NC(=O)/C=C/CN(C)C	-81*
55	O=C1N=C(N2CCOCC2)CN1c1ccc(Cl)cc1	31
56	Cc1ccc(=O)n(-c2ccccc2)c1	13&9&-10
57	Cc1ccc(NC(=O)C2(c3ccc4c(c3)OC(F)(F)O4)CC2)nc1-c1cccc(C(=O)O)c1	-2
58	C=CCN1CC(C(=O)N(CCCN(C)C)C(=O)NCC)CC2c3cccc4[nH]cc(c34)CC21 (stereo unspecified)	8
59	CCOc1ccc(-n2c([C@@H](C)N(Cc3cccnc3)C(=O)Cc3ccc(OC(F)(F)F)cc3)nc3ncccc3c2=O)cc1	-23
60	CN1CCN(c2ccc(OC(F)(F)F)c(Nc3ncc4c(n3)-c3c(c(C(N)=O)nn3CCO)CC4)c2)CC1	-81*

Going on with the list:
nr	SMILES	Tgondii IFNg
61	O=C(NC1CCOCC1)c1ccc(-c2cc(-c3cn[nH]c3-c3ccccn3)ccn2)cc1	-37
62	CC(=O)CCCCn1c(=O)c2c(ncn2C)n(C)c1=O	-12&15&-21
63	c1cc(-c2cnn3cc(-c4ccc(N5CCNCC5)cc4)cnc23)c2cccnc2c1	-84*
64	CCc1cccc(CC)c1NC(=O)N1Cc2[nH]nc(NC(=O)c3ccc(N4CCN(C)CC4)cc3)c2C1	-69
65	COc1nccc(-c2c(-c3ccc(F)cc3)ncn2C2CCC(O)CC2)n1 (stereo unspecified)	-79*
66	CCCN1CCN(c2ccc(C(=O)NC3(C(=O)NCC#N)CCCCC3)cc2)CC1	-51
67	C=CCn1c(=O)n(C2OC(CO)C(O)C2O)c2nc(N)[nH]c(=O)c21 (stereo unspecified)	6
68	Nc1nc(Nc2ccc3c(c2)CC[C@@H](N2CCCC2)CC3)nn1-c1cc2c(nn1)-c1ccccc1CCC2	-76*
69	CC(C)(F)C[C@H](N[C@@H](c1ccc(-c2ccc(S(C)(=O)=O)cc2)cc1)C(F)(F)F)C(=O)NC1(C#N)CC1	11
70	CCOC(=O)[C@H](CCc1ccccc1)N[C@H]1CS[C@H](c2cccs2)CN(CC(=O)O)C1=O	2
71	NC(=O)N1C(=O)C(C(=O)c2cccs2)c2cc(Cl)ccc21 (stereo unspecified)	-11&7

Four entries from above, with each value named.
63. c1cc(-c2cnn3cc(-c4ccc(N5CCNCC5)cc4)cnc23)c2cccnc2c1
  Tgondii IFNg: -84*
69. CC(C)(F)C[C@H](N[C@@H](c1ccc(-c2ccc(S(C)(=O)=O)cc2)cc1)C(F)(F)F)C(=O)NC1(C#N)CC1
  Tgondii IFNg: 11
66. CCCN1CCN(c2ccc(C(=O)NC3(C(=O)NCC#N)CCCCC3)cc2)CC1
  Tgondii IFNg: -51
71. NC(=O)N1C(=O)C(C(=O)c2cccs2)c2cc(Cl)ccc21 (stereo unspecified)
  Tgondii IFNg: -11&7

Screening data as filed in PubChem BioAssay.
